KCNQ2 block = KCNQ2 potassium channel inhibitors, primary screen, cell-based, CHO-K1, FluxOR thallium flux, B-score (AID 2156) | 20 min; hits give low values; only compounds with negative scores are shown here; some inactives read as strong as hits | B-score at 10 µM | hit rate 1.1% among 310,000;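 active = fluorescence ratio B-score at most minus 3 library SDs, with starting brightness B-score within 2 library SDs, cut at about -5.5 in these data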
Target sequence (O88943 whole entry, looked up): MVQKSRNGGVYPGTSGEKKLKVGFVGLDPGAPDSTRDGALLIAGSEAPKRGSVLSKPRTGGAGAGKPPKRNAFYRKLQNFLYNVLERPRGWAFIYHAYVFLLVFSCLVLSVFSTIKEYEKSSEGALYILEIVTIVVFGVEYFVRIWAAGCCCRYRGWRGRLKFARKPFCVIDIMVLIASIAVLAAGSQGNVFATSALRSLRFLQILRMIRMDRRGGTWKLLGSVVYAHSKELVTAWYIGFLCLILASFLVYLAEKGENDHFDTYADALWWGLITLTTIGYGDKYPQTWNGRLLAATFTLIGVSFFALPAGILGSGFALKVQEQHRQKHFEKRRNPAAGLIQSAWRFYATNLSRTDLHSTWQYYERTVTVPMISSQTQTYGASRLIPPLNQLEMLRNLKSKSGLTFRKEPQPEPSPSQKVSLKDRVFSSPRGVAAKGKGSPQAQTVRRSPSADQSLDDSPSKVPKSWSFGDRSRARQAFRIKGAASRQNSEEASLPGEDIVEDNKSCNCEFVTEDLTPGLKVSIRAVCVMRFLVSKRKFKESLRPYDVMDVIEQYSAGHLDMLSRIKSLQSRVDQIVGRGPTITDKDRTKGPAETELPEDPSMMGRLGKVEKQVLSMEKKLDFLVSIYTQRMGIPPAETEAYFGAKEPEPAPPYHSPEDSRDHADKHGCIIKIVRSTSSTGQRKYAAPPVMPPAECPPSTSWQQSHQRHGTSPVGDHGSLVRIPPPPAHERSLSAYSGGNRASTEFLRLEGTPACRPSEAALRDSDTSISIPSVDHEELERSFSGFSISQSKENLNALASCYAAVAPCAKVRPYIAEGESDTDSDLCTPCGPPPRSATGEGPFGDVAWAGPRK
KCNQ2 block baseline = recorded beside KCNQ2 block, whose call it bears; B-score; measured here: initial fluorescence intensity artifact check;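 brightness before thallium and not channel activity; 0 = typical well and far values either way flag optical interference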
* hit, by the source's call; i = inactive. A portion of the library; count on the stated rates, not on these rows.

Start of the data: the first 4 compounds (preview)
Molecule | KCNQ2 block | KCNQ2 block baseline
CC(C)C(=O)Nc1ccc(N2CCN(C(=O)c3cccs3)CC2)cc1 | i | 1.3
CS(=O)(=O)N(CC(=O)NCC1CCCO1)c1ccc(F)c(Cl)c1 (stereo not given) | i | -1.6
CCOC(=O)C1CCCN(C(=O)CSCc2ccccc2)C1 (stereo not given) | i | 1.5
O=C(NCCCO)/C(=C\c1ccco1)NC(=O)c1ccc(Br)o1 | i | 0.51

All compounds of this part, previewed entries included:
Molecule | KCNQ2 block | KCNQ2 block baseline
CC(C)C(=O)Nc1ccc(N2CCN(C(=O)c3cccs3)CC2)cc1 | i | 1.3
CS(=O)(=O)N(CC(=O)NCC1CCCO1)c1ccc(F)c(Cl)c1 (stereo not given) | i | -1.6
CCOC(=O)C1CCCN(C(=O)CSCc2ccccc2)C1 (stereo not given) | i | 1.5
O=C(NCCCO)/C(=C\c1ccco1)NC(=O)c1ccc(Br)o1 | i | 0.51
Cc1cccc(-n2nnnc2SC(C)C(=O)NCCC2=CCCCC2)c1 (stereo not given) | i | -1.9
CN(C)c1ccc(NC(=O)CN2CCN(c3ccc(F)cc3)CC2)cc1 | i | 1.2
CCc1ccc(N(C(=O)CCC(=O)Nc2cc(C)on2)C(C(=O)NC2CCCC2)c2ccco2)cc1 (stereo not given) | i | 2.2
Cc1ccc(S(=O)(=O)NC2CC3CCC2C3)cc1 (stereo not given) | i | 0.67
CCNC(=O)COC(=O)c1sccc1C | i | -1.3
CCCc1nc2nc(C)c(NS(=O)(=O)c3ccc(Cl)cc3)c(=O)n2[nH]1 | i | -0.06
O=C1N=C(N2CCOCC2)S/C1=C1\C(=O)N(Cc2ccccc2)c2ccccc21 | i | -0.52
COc1ccc(S(=O)(=O)NC(C)C(=O)NCc2ccccn2)cc1OC (stereo not given) | i | 0.22
O=C(c1nc2ccccn2c1CNCCCn1ncc2ccccc21)N1CCCC1 | i | 2.3
COc1cccc(C=Nc2cccc3c(=O)[nH][nH]c(=O)c23)c1O | i | -0.17
CC(C)CN1C(=O)C(=O)N(CC(=O)N2CCN(c3ccccc3)CC2)C1=O | i | 1.3

Next entries
Molecule | KCNQ2 block | KCNQ2 block baseline
O=C(NCCCN1CCCC1=O)c1ccc(OCc2ccccc2)cc1 | i | 0.01
CCNc1ccc(Br)cc(C(=O)/C=C/c2ccc3c(c2)OCO3)c1=O | i | 0.12
Cc1cccc2cc(CN(CCN(C)C)C(=S)Nc3ccccc3)c(=O)[nH]c12 | i | 1.8
CC(C)(C)NC(=O)C(c1ccccn1)N(C(=O)c1ccc2c(c1)OCCO2)C1CCCC1 (stereo not given) | i | -1.1
CC(=O)/C(=C/Nc1ccc(Oc2ccccc2)cc1)c1ccccc1 | i | -1.1
CN(C)C=Nc1c(Br)cc(Br)c2nonc12 | i | 1.2
CCOC(=O)c1[nH]c2ccc(OC)cc2c1NC(=S)N1CCN(c2cccc(C)c2C)CC1 | i | 0.41
O=C(CSc1nc2ccccc2n1S(=O)(=O)c1cccc([N+](=O)[O-])c1)NCc1cccs1 | i | 0.01
O=C(Nc1ccccc1-c1ccccc1)C1CCC1 | i | -0.65
Cc1cccc(-n2ncc3c2CCCC3NC(=O)CCN2CCCO2)c1C (stereo not given) | i | 0.04
C/C(=N\O)C(C)(C)Nc1ccc(Br)cc1 | i | 0.51
O=C1/C(=C/c2ccccc2)SC(=S)N1CCCC(=O)N1CCCCC1CCO (stereo not given) | i | -0.06
Cc1cc(C(=O)CSc2nn3c(=O)c(C(C)(C)C)nnc3s2)c(C)n1C | i | 1.6
Cc1ccc(S(=O)(=O)Nc2cccc3cccnc23)c([N+](=O)[O-])c1 | i | -0.5
O=C(Nc1ccc2c(c1)OCO2)c1noc2c1CCCC2 | i | -0.45

(next part)
Molecule | KCNQ2 block | KCNQ2 block baseline
CN(C(=O)CC1C(=O)NCCN1Cc1ccc2ccccc2c1)C1CCOCC1 (stereo not given) | i | 1.3
Cc1ccc(N2C(=O)CC(SCC(=O)Nc3ccc(S(N)(=O)=O)cc3)C2=O)cc1 (stereo not given) | i | -0.95
O=S(=O)(c1ccc(S(=O)(=O)N2CCCC2)cc1)N1CCCCC1 | i | 1.6
CCOc1ccc(-n2ccnc2)nn1 | i | 0.7
COc1cccc(CNC(=O)CSc2nc3c(oc4ccccc43)c(=O)n2CC2CCCO2)c1 (stereo not given) | i | 0.79
CNC(=S)NNC(=O)c1ccc(N(C)C)cc1 | i | -2
CC(C)CN1C(=S)SC(C)(C)C1n1oc(=O)n(-c2ccccc2)c1=O (stereo not given) | i | -0.87
Cc1c(C(=O)N2CCC(C)CC2)oc2ccc(S(=O)(=O)N3CCC4(CC3)OCCO4)cc12 | i | 0.33
Cc1ccc(CNC(=O)CCCc2c[nH]c3ccccc23)cc1 | i | -0.55
Cc1ccc(-c2cc(C(=O)N/N=C/c3cccnc3)n[nH]2)o1 | i | -0.87
C=CCN(CC=C)CCOc1ccc(OC(C)C)cc1 | i | 0.05
Cc1ccc(N2CCN(S(=O)(=O)N(C)C)CC2)cc1Cl | i | -0.7
COc1ccc(NC(=O)N2CCCC(c3ccccc3)C2)cc1 (stereo not given) | i | -1.1
CCOc1cc2c(cc1/C=C/c1noc(C)c1[N+](=O)[O-])OC(C)C2 (stereo not given) | i | 3.8
COc1cccc2c1O/C(=N\O)C(C(=O)Nc1ccc(C)cc1)C2 (stereo not given) | i | 1.4

Continued:
Molecule | KCNQ2 block | KCNQ2 block baseline
Cc1ccc(C)c(C2=NNC(=NCc3ccccc3)SC2)c1 | i | 1.8
CCn1c2ccccc2c2cc(/C=N/NC(=O)c3cccc(C)c3)ccc21 | i | 0.36
O=[N+]([O-])c1cc(C(F)(F)F)cc([N+](=O)[O-])c1NCCNC(=S)Nc1ccc(Cl)c(Cl)c1 | i | -0.78
COc1ccc2cc(C)c3nnc(SCC(=O)Nc4nc(-c5ccc(F)cc5)cs4)n3c2c1 | i | -1.1
COC(=O)[C@H](c1ccccc1Cl)N1CCc2sccc2C1 | i | 0.11
CCc1ccc(N=C2NC(=O)/C(=C/c3cc(OC)c(O)c(OC)c3)S2)cc1 | i | 1.1
CCOC(=O)C(C)(C)N(Cc1cccc(C)c1)S(=O)(=O)c1cccc([N+](=O)[O-])c1 | i | 0.11
O=C(CNc1cccc([N+](=O)[O-])c1)N/N=C/c1ccc(F)cc1 | i | 0.11
Cc1ccc(C)c(Cn2c(C)nc3c(sc(=S)n3-c3ccccc3)c2=O)c1 | i | 0.34
O=C(N=C1SC2CS(=O)(=O)CC2N1c1ccc(F)cc1)C1CC1 (stereo not given) | i | 0.06
COc1ccc(/C=C/c2onc(C)c2S(=O)(=O)N2CCC(C(=O)N3CCC(C)CC3)CC2)cc1 | i | -0.19
CCOC(=O)N1CCN(Cc2nc3c(c(=O)n(C)c(=O)n3C)n2Cc2ccccc2)CC1 | i | 0.48
COC(=O)c1cccc(NC(=O)Cc2coc3cc(OC)ccc23)c1 | i | -0.75
CCOC(=O)Cn1cnc2c(nnn2-c2ccc(F)cc2)c1=O | i | -1.1
O=[N+]([O-])c1ccccc1S(=O)(=O)N1CCN(CC2CC=CCC2)CC1 (stereo not given) | i | -1.6

(continued)
Molecule | KCNQ2 block | KCNQ2 block baseline
CC(=O)c1cc2c(cc1NS(=O)(=O)c1ccc(F)cc1)OCO2 | i | 0.71
O=C1CC(SCc2nc3ccccc3[nH]2)C(=O)N1c1ccc(Cl)cc1 (stereo not given) | i | 0.17
COc1ccc(C2=NOC(C(=O)Nc3cc(C)nn3-c3ccccc3)C2)cc1OC (stereo not given) | i | -0.36
COc1ccc(C(C)NC(=O)c2ccncc2)cc1OC (stereo not given) | i | -0.31
COc1ccc(-c2ocnc2C(=O)N2CCN(C(=O)C(c3ccccc3)c3ccccc3)CC2)cc1 | i | 2.1
O=C(O)CCNc1ccc2c(c1)OCCO2 | i | -1.2
CC(C)(C)c1ccc(-n2ncc3c2CCCC3NC(=O)c2cnccn2)cc1 (stereo not given) | i | 0.43
COc1ccc2oc(/C=C/N(C)C)c(C(=O)c3ccc(Cl)cc3)c2c1 | i | -1.6
N#Cc1ccc(CSc2nnc(Cc3cccs3)n2Cc2ccco2)cc1 | i | -0.86
CCCc1cc(=O)oc2cc(OCC(=O)OC)cc(OCC(=O)OC)c12 | i | 0.02
CN(C)/C=C1\C(=O)ON=C1c1ccccc1 | i | 1.1
CCCN1CCCc2ccccc21 | i | 1.4
COc1ccccc1-c1nnc2sc(-c3ccc(N(C)C)cc3)nn12 | i | -2.5
CC(C)C(NC(=O)c1ccccc1F)C(=O)Nc1nccs1 (stereo not given) | i | -1
Cc1ccc(NC(=O)CSc2nn(-c3ccccc3)c(=S)s2)cc1S(=O)(=O)N(C)C | i | -0.07

Record cards, from the list above. Order of screens: KCNQ2 block, KCNQ2 block baseline
Record of CCCN1CCCc2ccccc21 → i, 1.4
Record of N#Cc1ccc(CSc2nnc(Cc3cccs3)n2Cc2ccco2)cc1 → i, -0.86

Later entries:
structure	KCNQ2 block	KCNQ2 block baseline
COc1cc(NS(=O)(=O)c2ccc(NC(=O)c3cccs3)cc2)nc(OC)n1	i	0.52
Cc1ccc(C(=O)COc2ccccc2-c2ccccc2)cc1C	i	-0.44
N#CCCn1nc(-c2ccccc2)c2ccccc2c1=O	i	-0.08
CCCNc1sc(S(=O)(=O)CCC)nc1S(=O)(=O)c1ccc(C)cc1	i	-0.55
COC(=O)NC(NC(=S)Nc1ccc([N+](=O)[O-])cc1)C(Cl)(Cl)Cl (stereo not given)	i	1.1
COCCNC(=O)C(OC(=O)CC1Sc2ccccc2NC1=O)c1ccncc1 (stereo not given)	i	-0.02
Cc1ccc(S(=O)(=O)N(CC(=O)NCCSc2ccccn2)c2cc(C)cc(C)c2)cc1	i	0.49
COc1ccc(C2=NOC(C(=O)Nc3cccnc3)C2)cc1OC (stereo not given)	i	0.05
O=C(CN1C(=O)c2ccccc2S1(=O)=O)NC(Nc1ccccc1F)C(Cl)(Cl)Cl (stereo not given)	i	-0.17
Cc1cc(-n2cnnn2)ccc1C(C)C	i	1.6
O=C(O)CC12CC3CC(C1)CC(n1ncc(NCc4ccccc4Cl)c(Cl)c1=O)(C3)C2	i	0.96
Cc1cccc(NC(=O)CSc2ncnc3sc(C)cc23)c1	i	-0.47
COC(=O)C1=C(C)OC(N)=C(C#N)C1c1ccccc1 (stereo not given)	i	0.64
c1ccc(Oc2cc(-n3cccn3)ncn2)cc1	i	0.01
O=C(O)CNC(=O)/C=C/c1ccc(Cl)cc1Cl	i	0.06

Further results
structure	KCNQ2 block	KCNQ2 block baseline
O=C(c1ccco1)N1CCN(C(=S)Nc2ccccc2Cl)CC1	i	-0.49
O=C1NCCCC1C(=O)N1CCN(C(=O)c2ccco2)CC1 (stereo not given)	i	-0.04
CNC(C)C#Cc1ccc2c(=O)c3cc(C)c(C)cc3oc2c1 (stereo not given)	i	2.9
C/C(=N\NC(=S)Nc1ccc(C)c(C)c1)c1ccc(N2CCOCC2)cc1	i	0.32
Cc1ccc(NC(=O)CN2C(=O)N/C(=C/c3ccccc3OCc3cccc(C(=O)O)c3)C2=O)cc1	i	-1.3
Cc1cc(NC(=O)COc2cccc(Oc3ccccc3)c2)no1	i	0.29
O=C(NCc1ccccc1)NC(=O)c1ccccc1F	i	2
CCOC(=O)N1CCC(N2C(=O)c3ccccc3C2Nc2cc(C)cc(C)c2)CC1 (stereo not given)	i	1.3
COc1ccc(Br)c(C(=O)Nc2cccc(Cl)c2Cl)c1	i	0.54
COc1ccccc1CN(C)CC(=O)NC1CCCc2ccccc21 (stereo not given)	i	0.11
O=C1c2cccnc2C(=O)N1Cc1ccc(S(=O)(=O)N2CCOc3ccccc32)cc1	i	-0.61
COc1cccc(NC(=O)Nc2ccccc2C(N)=O)c1	i	0.72
COc1ccc(-c2[nH]ncc2CN2CCN(C(=O)c3ccco3)CC2)cc1F	i	0.9
NC(=O)COC(=O)c1cc(-c2ccco2)nc2ccccc12	i	1.6
N#Cc1cc([N+](=O)[O-])ccc1NC(=O)COC(=O)CCC1CCCCC1	i	2.8

Sorted by number of heavy atoms (lowest first): part of the list above
structure	KCNQ2 block	KCNQ2 block baseline
CCOc1ccc(-n2ccnc2)nn1	i	0.7
O=C(Nc1ccccc1-c1ccccc1)C1CCC1	i	-0.65
COC(=O)[C@H](c1ccccc1Cl)N1CCc2sccc2C1	i	0.11
CN(C)c1ccc(NC(=O)CN2CCN(c3ccc(F)cc3)CC2)cc1	i	1.2
C/C(=N\NC(=S)Nc1ccc(C)c(C)c1)c1ccc(N2CCOCC2)cc1	i	0.32
O=[N+]([O-])c1cc(C(F)(F)F)cc([N+](=O)[O-])c1NCCNC(=S)Nc1ccc(Cl)c(Cl)c1	i	-0.78
CCc1ccc(N(C(=O)CCC(=O)Nc2cc(C)on2)C(C(=O)NC2CCCC2)c2ccco2)cc1 (stereo not given)	i	2.2

Continuation:
structure	KCNQ2 block	KCNQ2 block baseline
CN(C)CCCN(C(=O)c1ccc(S(=O)(=O)N2CCCCCC2)cc1)c1nc2ccc(F)cc2s1	i	0.09
O=C1N(c2cccc(Cl)c2)C(c2ccc(Cl)cc2)N2CCCN12 (stereo not given)	i	0.53
Cc1nnc(NC(=O)CSc2nnc(CC(=O)Nc3ccccc3F)n2C)s1	i	0.02
CC(=O)c1ccc(NC(=O)CCCCCn2nnc3ccccc3c2=O)cc1	i	0.88
COC(=O)c1ccccc1NC(=O)c1cc(-c2ccc(C)cc2)on1	i	-2
Cc1nn(C(C)C(=O)N2CCCCC2)c(=O)c2c1sc1ccccc12 (stereo not given)	-8.9*	-0.94*
CCOC(=O)c1c(N)sc(C(=O)N2CCCC2)c1C	i	-0.31
Cc1ccc(C(=O)N2CCN(c3nc4ccccc4n3C)CC2)cc1	i	-0.64
Cc1ccc(S(=O)(=O)N2CCCCC2)cc1NC(=O)CNCc1ccco1	i	-1.2
O=C(NC1CCSC1=O)C1CC(=O)N(c2ccc(F)cc2)C1 (stereo not given)	i	-0.34
CCOc1ccc(C(=O)CCC(=O)N(CC)CC(=O)NCc2cccs2)cc1	i	1.8
O=C(Nc1ncc(Br)s1)C1CCCN1S(=O)(=O)c1cccc2cccnc12 (stereo not given)	i	-2.5
CCC(=O)Nc1ccc(C(=O)N/N=C/c2cc(Br)c(OC)cc2OC)cc1	i	0.73
